MT1-MMP reporter: inhibitors of MT1-MMP promoter transcription, cell-based, luciferase reporter, luminescence (AID 618); hit rate 0.62% among 87,000; MT1-MMP promoter luciferase reporter cells, luminescence; calls from a first round at 10 µM; hits with a dose series show EC50 in µM;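 active means over half of the reporter light lost at 10 µM or EC50 under 50 µM; inactive means the rest and hits that failed the dose series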;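 further: actives suppress MT1-MMP promoter-driven transcription so potencies describe inhibitors; HT1080 fibrosarcoma cells; overnight exposure; toxic or luciferase-blocking compounds were not removed from the actives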
Starred values were filed as active, the others as inactive; i = inactive. The list is partial; rates above refer to the full screens.

| canonical_smiles | MT1-MMP reporter |
| --- | --- |
| CC(=O)Nc1ccc(S(=O)(=O)N(Cc2ccccc2)C(C)C)cc1 | i |
| COc1ccc(-c2cc3nc(C)c(CCC(=O)NC(C)CCc4ccco4)c(C)n3n2)c(OC)c1 (configuration not stated) | i |
| Cc1cccc(NC(=O)C2CC(=O)N(c3ccccc3)C2)c1C (configuration not stated) | i |
| C=CCN(c1ccc(C(=O)NC(C)C)cc1)S(C)(=O)=O | i |
| COC(=O)[C@@H]1C[C@@]2(O)[C@@H](O)[C@@H](O)[C@@H](O)C[C@H]2N1Cc1ccc(-c2ccccc2)cc1 | i |
| COC(=O)c1ccc(C(NC(=O)OCc2ccccc2)/C(=C/[C@@H](C)C(=O)NCc2ccncc2)c2cccnc2)cc1 (some centres not stated) | i |
| C=CCn1c(SCC(=O)OCC)nc2cc(C(=O)NCc3ccco3)ccc2c1=O | i |
| COC(=O)c1ccc(C(NC(=O)OCc2ccccc2)/C(I)=C/[C@@H](C)C(=O)NCc2ccc(C)o2)cc1 (some centres not stated) | i |
| C[C@@]1(C(NC(=O)c2ccccc2)c2ccc(-c3ccccc3)cc2)C[C@H]1C1CCCCC1 (some centres not stated) | i |
| O=C(/C=C/c1ccco1)NC(=S)Nc1ccc(Cl)cn1 | i |
| CCOC(=O)c1c(-c2ccc(C)o2)csc1NC(=O)CSc1ncn[nH]1 | i |
| COC(=O)c1ccc(C(NC(=O)OCc2ccccc2)/C(C)=C/[C@@H](C)C(=O)N[C@@H](CO)Cc2ccccc2)cc1 (some centres not stated) | i |
| CCCCNCC(=O)Nc1ccc(NC(=O)CNCCCC)cc1 | i |
| COC(=O)c1cn(-c2ccccc2)nc1-c1ccncc1 | i |
| Nc1nc(-c2ccc(Br)cc2)cc(C(F)(F)F)n1 | i |
| CC(C)(C)NC(=O)COc1ccc(CNc2ccc3[nH]c(=O)[nH]c3c2)cc1 | i |
| CSc1ccccc1-n1nnnc1SCC(=O)Nc1cc(C)ccc1C | i |
| COc1ccc(S(=O)(=O)N(CCc2ccccc2)CC(=O)O)cc1Cl | i |
| COC(=O)[C@@H]1C[C@@]2(O)[C@H](O)[C@H](O)[C@H](O)C[C@H]2N1Cc1cc(OC)cc(OC)c1 | i |
| Cc1ccccc1-n1c(=O)c(C#N)cc2c(=O)n3ccccc3nc21 | i |
| C/C(=N\NC(=O)c1ccccn1)C12CC3CC(CC(C3)C1)C2 | i |
| CNC(=O)c1c(NC(NC(=O)c2ccco2)C(=O)c2ccc(Cl)cc2)sc2c1CCCC2 (configuration not stated) | i |
| Oc1ccc(C(=S)N2CCCCCC2)cc1 | i |
| CO/N=C/c1ccc(Sc2ccccc2N)c([N+](=O)[O-])c1 | i |
| CCC1=C2CC[C@H]3C(=O)N(CC)C(=O)[C@H]3[C@H]2[C@@]2(C)C(=NCCc3c[nH]c4ccccc34)OC(=O)N2C1=O | i |
| Cc1ccc(NC(=O)CCSc2nnc3ccccn23)cc1 | i |
| CN1CCN(C(=O)/C(=C\c2ccccc2)c2ccccc2)CC1 | i |
| O=C(COc1ccc(Cl)cc1Cl)NCCSc1ccc(Cl)cc1 | i |
| COc1ccc(NC(=O)OCC(C)C)cc1OC | i |
| CC(=O)Oc1ccc(-c2cccc(C(=O)NCC(=O)O)c2)cc1 | i |
| OC1CCCN(Cc2ccc3ccc4cccc5ccc2c3c45)C1 (configuration not stated) | i |
| Cc1cc(Oc2ccccc2)nc(SCC(=O)Nc2ccc(Cl)cc2Cl)n1 | i |
| Cc1ccc(-n2nc3ccc(NC(=O)c4ccc5c(c4)OCO5)cc3n2)cc1 | i |
| COc1cc2c(C(=O)N3CCN(c4cccc(Cl)c4)CC3)cn(C)c(=O)c2cc1OC | i |
| CCOc1ccc(-c2cc(N3C(=O)Nc4ccccc4N3O)on2)cc1 | i |
| O=C(CSc1nnc(C2CC2)n1-c1ccccc1)Nc1ccc(N2CCOCC2)cc1 | i |
| Cc1cc(Cl)ccc1N(CC(=O)N=Nc1c(O)[nH]c2ccccc12)S(C)(=O)=O | i |
| CCC1=C(OC(=O)N(CC)CC)N2C(=O)OC(=NCC(=O)OC)[C@]2(C)[C@H]2C1=CC[C@H]1C(=O)N(CC)C(=O)[C@H]12 | i |
| O=C(NCC1CCCO1)C1CC(c2ccccc2Cl)=NO1 (configuration not stated) | i |
| Cc1oc2c(cc(NS(=O)(=O)c3ccc4c5c(cccc35)C(=O)N4)c3ccccc32)c1C(=O)OC(C)C | i |
| COC(=O)c1ccc(N2CCOCC2)c(F)c1 | i |
| CCOC(=O)c1ccc(NC(=O)c2ccccc2)cc1 | i |
| Cc1ccc(SC(C)C(=O)Nc2ccc(S(=O)(=O)N3CCOCC3)cc2)cc1 (configuration not stated) | i |
| Cc1cc(C)c(S(=O)(=O)c2ccccc2)c(OC(=O)c2c(F)cccc2Cl)n1 | i |
| C[C@@H](C(=O)NCc1ccccc1)[C@H]1C[C@]1(C)[C@H](NC(=O)OCc1ccccc1)c1ccccc1 | i |
| O=C1/C(=C/c2ccc([N+](=O)[O-])cc2)C=C(c2ccccc2)N1c1ccc(O)cc1 | i |
| CCCCC(=O)Nc1ccc(C(=O)N2CCC(C(=O)OCC)CC2)cc1 | i |
| COC(=O)c1ccc2c(=O)n(CCCCCC(=O)NCc3ccccc3)c(=O)[nH]c2c1 | i |
| CCN1CCN(C(=O)CCNC(=O)Cn2ccc3ccccc3c2=O)CC1 | i |
| COc1cc(/C=C/c2c([N+](=O)[O-])c(=O)n(C)c(=O)n2C)cc(OC)c1OC | i |

Random excerpt: five records from the list.
| canonical_smiles | MT1-MMP reporter |
| --- | --- |
| CCOC(=O)c1ccc(NC(=O)c2ccccc2)cc1 | i |
| COc1cc(/C=C/c2c([N+](=O)[O-])c(=O)n(C)c(=O)n2C)cc(OC)c1OC | i |
| COC(=O)c1ccc(N2CCOCC2)c(F)c1 | i |
| Cc1cc(C)c(S(=O)(=O)c2ccccc2)c(OC(=O)c2c(F)cccc2Cl)n1 | i |
| C[C@@H](C(=O)NCc1ccccc1)[C@H]1C[C@]1(C)[C@H](NC(=O)OCc1ccccc1)c1ccccc1 | i |

(cont.)
| canonical_smiles | MT1-MMP reporter |
| --- | --- |
| CN1CCOCCOCCN(C)C(=O)N2CCOCCOCCN(CCOCC2)C1=O | i |
| COCCNC(=O)CNC(=O)c1nn(-c2ccc(OC)c(Cl)c2)c(=O)c2ccccc12 | i |
| CC(C)(C)c1ccc(C(=O)N/C(N)=N/c2nc3ccccc3o2)cc1 | i |
| CSc1ccccc1NC(=O)c1cc(C(C)C)on1 | i |
| COc1ccc(C(=O)c2ccc(Cl)cc2)c2ccccc12 | i |
| O=C1OC(c2ccccc2)/C(=C(/O)c2ccccc2)C1=O (configuration not stated) | i |
| CC1(C)NC(=O)N(CCSc2ccc(Cl)cc2)C1=O | i |
| Clc1ccc(C2[C@H]3CN(Cc4ccc(-c5ccccc5)cc4)[C@H](c4ccccc4)C34CC2(c2ccccc2)C4)cn1 (some centres not stated) | i |
| Cc1cc(C)c(C(=O)CSC2=NC(N)=C(C#N)C3(CCCCC3)C2C(N)=O)cc1C (configuration not stated) | i |
| c1ccc(Oc2cccc(CN3CCCCC3)c2)cc1 | i |

Other entries:
SMILES | MT1-MMP reporter
CCN1CCN(C(=O)c2cc(-c3cccnc3)nc3ccc(Br)cc23)CC1 | i
CCOc1ccc(NC(=O)N2CCC(c3ccc(C)cc3)C2)cc1 (configuration not stated) | i
CCOC(=O)C1=C(C)N(CCCC(=O)O)C(=O)NC1c1ccccc1Cl (configuration not stated) | i
CCCNC(=O)CC1C(=O)N(Cc2ccccc2)C(C)c2nc3ccccc3n21 (configuration not stated) | i
COC(=O)c1ccc(C(NC(=O)OCc2ccccc2)/C(F)=C/[C@@H](C)C(=O)N2CCN(C)CC2)cc1 (some centres not stated) | i
Cc1cc(NC(=O)CSc2nc3ccccc3c(=O)n2CCCC(=O)NCc2ccccc2)n[nH]1 | i
CC(C)(C)C(=O)CC1(O)C(=O)N(Cc2ccc(Cl)cc2)c2ccccc21 (configuration not stated) | i
O=C(NCCCn1ccnc1)Nc1ccc(Cl)cc1Cl | i
Cc1ccc(OCc2nc(-c3ccccn3)no2)cc1 | i
C#CCOC(=O)C(NC(=O)c1ccccc1)=C1CCCCC1 | i
O=C(O)C1C2C=CC(O2)C1C(=O)NCc1ccccc1Br (configuration not stated) | i
Cn1nc(C(F)(F)F)c2cc(NC(=O)OCC(C)(C)C)sc21 | i
CCN(CC)C(=O)CSc1nc2c(sc(=S)n2Cc2ccco2)c(=O)n1-c1ccccc1 | i
O=C(NCc1ccco1)c1cccc(N2CCCC2=O)c1 | i
O=C(Nc1ccc(Br)cc1)/C(=C/c1cccc([N+](=O)[O-])c1)NC(=O)C1CCCCC1 | i
COC(=O)[C@@]1(Cc2ccc(OC)cc2)[C@H]2c3cc(C(=O)N(C)C)n(CCc4ccccn4)c3C[C@H]2CN1C(=O)c1ccccc1 | i
C1CSC2(N1)C1CC3CC2CC(C1)C31NCCS1 (configuration not stated) | i
COc1cc(C2=NOC(C(=O)NCc3ccccn3)C2)cc(OC)c1OC (configuration not stated) | i
COC(=O)c1ccc(C(NC(=O)OCc2ccccc2)/C(C)=C/[C@@H](C)C(=O)NCc2ccc(OC)c(OC)c2)cc1 (some centres not stated) | i
Cc1nn(-c2ncc(C(F)(F)F)cc2Cl)c(=O)n1-c1ccccc1Cl | i
CCCN(Cc1ccc(N(CC)CC)cc1)CC1CC1 | i
COc1ccc(CCNC(=O)CSc2nc3ccccc3o2)cc1OC | i
CCCC[C@@H]1C[C@H]1C(NC(=O)c1ccccc1)c1ccccc1C(F)(F)F (some centres not stated) | i
O=c1c(F)cn(C2CCCO2)c(=O)n1Cc1c(Cl)cccc1Cl (configuration not stated) | i
CCNS(=O)(=O)c1ccc(Br)c(OC)c1 | i
COc1ccccc1C(=O)Nc1ccc(N2CCCCC2)cc1 | i
Cc1cc(=O)oc2ccc(OCC(=O)O)cc12 | i
C[C@@H](C(=O)Nc1ccc2ccccc2c1)[C@@H]1C[C@@]1(C)[C@@H](N)c1ccccc1 | i
C=CCOCCN1C(=O)C2C(c3ccccc3)C=CC(c3ccccc3)C2C1=O (configuration not stated) | i
CCOC(=O)c1c(NC(=O)CSc2nnc(Cc3ccccc3)o2)sc(C(C)=O)c1C | i
COC(=O)N1[C@H](C)C=C[C@]1(Cc1ccccc1)C(=O)OC | i
Cc1[nH]nc(SCC(=O)N2CCC(C)CC2)c1[N+](=O)[O-] | i
CCSc1nnc(-c2cccnc2)n1-c1ccc(Cl)c(C)c1 | i
Cc1ccc(S(=O)(=O)Nc2cc(Cl)c(O)cc2C)cc1 | i
COc1ccc(C(=O)Nn2c(SCC(=O)N3CCC(C)CC3)nc3ccccc3c2=O)cc1 | 2µM*
CCCNC(=O)CCn1c(-c2ccc(C)cc2)cc(C(=O)OCC)c1C | i
Cc1ccc(NC(=O)C(=O)NC2CCCCC2)cc1 | i
COc1ccc(-c2cn(-c3ccc(C)cc3)c(=O)n2CC(=O)Nc2ccc(OC)cc2OC)cc1 | i
Cc1cc(C)cc(NC(=O)CC2NCCNC2=O)c1 (configuration not stated) | i
COC(=O)c1cn[nH]c1NC(=S)Nc1ccc(Cl)c(Cl)c1 | i
COC(=O)[C@@]1(Cc2ccccc2)C=C[C@@H](C)N1C | i
COc1ccccc1N1CCN(c2nnc(-c3ccc(F)cc3)c3ccccc23)CC1 | i
COc1ccc(OC)c(-n2c(-c3cnccn3)n[nH]c2=S)c1 | i
NC(=O)C1CCCN(CCc2ccccc2)C1 (configuration not stated) | i
CCC(C)C(NC=C1C(=O)OC(C)(C)OC1=O)C(=O)O (configuration not stated) | i
Cn1c(CNC(=O)c2ccco2)nnc1SCC(=O)Nc1cccc(Br)c1 | i
Cc1ccc(CSCC(=O)N2CCOCC2)cc1 | i
CC(=O)N1CC=CC1(C)C(=O)O (configuration not stated) | i
CC(C)NS(=O)(=O)c1ccc(OCC(=O)NCCC2=CCCCC2)cc1 | i
COc1ccc(-n2c(=S)[nH]c3cc(C(=O)NCc4ccco4)ccc3c2=O)c(OC)c1 | i

Next section, starting with the last six of the part before.
SMILES | MT1-MMP reporter
CCC(C)C(NC=C1C(=O)OC(C)(C)OC1=O)C(=O)O (configuration not stated) | i
Cn1c(CNC(=O)c2ccco2)nnc1SCC(=O)Nc1cccc(Br)c1 | i
Cc1ccc(CSCC(=O)N2CCOCC2)cc1 | i
CC(=O)N1CC=CC1(C)C(=O)O (configuration not stated) | i
CC(C)NS(=O)(=O)c1ccc(OCC(=O)NCCC2=CCCCC2)cc1 | i
COc1ccc(-n2c(=S)[nH]c3cc(C(=O)NCc4ccco4)ccc3c2=O)c(OC)c1 | i
Cc1ccc(-c2nn(-c3ccccc3)cc2C2CC(c3cccs3)=NN2C(=O)CCCC(=O)O)cc1 (configuration not stated) | i
COc1ccc(CCNC2CC(=O)N(CCc3ccc(OC)c(OC)c3)C2=O)cc1 (configuration not stated) | i
CN1C[C@@H]2C(c3ccc(Cl)nc3)C3(c4ccc(C#N)cc4)CC2(C3)[C@H]1c1ccccc1 (some centres not stated) | i
COC(=O)c1ccc(OCCOc2ccc(C(=O)OC)cc2)cc1 | i
COc1ccc2ccccc2c1CN1CCN(Cc2ccccc2)CC1 | i
CCCCCCCc1nc2c(=O)n(C)c3ccccc3c2o1 | i
Cn1c(=O)c2c(nc(SCC(=O)NC34CC5CC(CC(C5)C3)C4)n2C)n(C)c1=O | i
COc1ccc(OC)c(NC(=O)CNC(=O)Cn2c(C)cc3ccccc3c2=O)c1 | i
Cc1cc(N2CCCCC2)nc(NCc2ccccc2)n1 | i
Cc1ccc(-c2nc3ncccn3c2NC2CCCCC2)o1 | i
Cc1nn(-c2ccccc2)nc1CNC(=O)C(C)Cc1ccccc1 (configuration not stated) | i
COc1ccc(C(=O)CC(c2ccccc2)C2C(=O)CCCC2=O)cc1 (configuration not stated) | i
O=C1NC(=O)c2cc(NC(=O)C3CCCO3)ccc21 (configuration not stated) | i
CCOC(=O)N1CCN(C(=O)C2CCN(S(=O)(=O)c3c(C)cc(C)cc3C)CC2)CC1 | i
CCCCCCc1nc2ccccc2c(=O)n1NC(=O)c1c(O)c2cccc3c2n(c1=O)CCC3 | i
O=C1CC(C(=O)Nc2ccc(F)c(Cl)c2)N=C(N2CCCCC2)N1 (configuration not stated) | i

Compound activity: PubChem BioAssay, Sanford-Burnham Center for Chemical Genomics
